VDR inh: inhibitors of human vitamin D receptor | VDR-SRC2-3 peptide fluorescence polarization, 2 h | Potency, µM, for inactives: max response, negative = inhibition, hits mostly inhibitors | 400,000 tested, 0.93% active; active = well fitted inhibition curve with a large enough effect; inconclusive = small, poorly fitted or top-dose-only effect, or another doubt; inactive = no such curve, though single readings can be large or run the other way; note: series mostly up to about 120 µM
Target sequence (P11473 whole entry, looked up): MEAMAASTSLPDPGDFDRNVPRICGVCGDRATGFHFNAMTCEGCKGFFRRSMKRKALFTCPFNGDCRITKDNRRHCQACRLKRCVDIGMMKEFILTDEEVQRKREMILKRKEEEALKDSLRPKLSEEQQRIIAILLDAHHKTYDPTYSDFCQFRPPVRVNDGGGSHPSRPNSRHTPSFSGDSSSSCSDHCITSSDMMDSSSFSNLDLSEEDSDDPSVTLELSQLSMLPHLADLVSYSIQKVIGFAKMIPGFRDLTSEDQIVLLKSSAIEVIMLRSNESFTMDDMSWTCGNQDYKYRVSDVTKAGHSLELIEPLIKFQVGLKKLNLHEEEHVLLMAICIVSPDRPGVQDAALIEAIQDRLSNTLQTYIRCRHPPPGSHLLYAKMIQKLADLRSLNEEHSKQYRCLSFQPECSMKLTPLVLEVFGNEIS
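Inhibition of the VDR/SRC2-3 peptide interaction is quantified by fluorescence polarization. Compounds (23 nl, pintool) incubate with the reagents for 2 hours at ambient room temperature.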
The depositor's hits bear a star; ? = inconclusive; & = joins results of further samples. % is set by controls: 0 for no effect and ±100 for the full control effect; potency is the fitted concentration of half-maximal effect. Only part of the results is shown; the hit share may differ from the screen's.

canonical_smiles	VDR inh
O=[N+]([O-])c1cc(Cl)ccc1NCCNS(=O)(=O)c1ccccc1	-8%
O=C(COc1ccccc1F)Nc1nc(-c2ccccn2)cs1	?
CCCCC(=O)Nc1ccc2c(c1)nc(CN1CCN(C(=O)OCC)CC1)n2C	1%
Cn1c(CNC(=O)CCNC(=O)c2cccc(F)c2)cc(=O)n(C)c1=O	-14%
CC(=O)Nc1ccc(OC(=O)c2ccco2)cc1	-2%
CC(C)Cn1c(=S)[nH]c2cc(C(=O)NCc3ccccc3F)ccc2c1=O	5%
COc1ccc(CNC(=O)C/C(C)=N/NC(=O)Cc2ccc(OC)cc2)cc1	4%
O=C1COc2ccc(-c3cc(-c4ccccc4)c4c(n3)-c3ccccc3OC4)cc2N1	0%
Cc1cc2cc(CNC(=O)c3ccco3)ccc2n1C	-9%
O=C(COC(=O)c1cnc(Cl)c(Cl)c1)NC1CCCCCC1	-1%
COC(=O)c1ccc(-n2nnnc2SCC(=O)NCc2cccc(C(=O)O)c2)cc1	-4%
COC(=O)c1ccc(OC)c(CSc2nnc(COc3cccc(C)c3)o2)c1	-20%
CCCc1nn2c(=O)cc(COC(=O)c3ccccc3NC(=O)COc3ccccc3F)nc2s1	1%
O=C(Nc1cccc(Cl)c1)Nc1nnc(-c2ccncc2)s1	-13%
Cc1ccc(S(=O)(=O)NCC(=O)OCc2csc(CC(=O)Nc3ccccc3C)n2)cc1C	-16%
CC(=O)Nc1ccc(/C(C)=N/NC(=O)c2ccc(F)cc2)cc1	?
Fc1cc2nc(-c3ccncc3)[nH]c2cc1F	-2%
Cc1ccc(NC(=O)c2cc(C(=O)Nc3ccc(C)cc3)n(C)n2)cc1	8%
Cc1ccccc1NC(=O)c1sc2nc3c(c(-c4ccco4)c2c1N)CCCC3	5%
COc1ccc(NC(=O)Cn2nnc(-c3ccccc3NS(=O)(=O)c3ccc(OC)cc3)n2)cc1	-9%
Cc1[nH][nH]c(=O)c1C(c1c(C)[nH][nH]c1=O)c1cn(Cc2ccc(F)cc2)c2ccccc12	?
O=C(NNC(=O)c1cc2ccccc2cc1O)Nc1ccc(Br)cc1	1%
O=c1ccnc(SCCC(F)=C(F)F)[nH]1	6%
Cc1ccc(C(=O)Oc2coc(CSc3nnc(NC(=O)C4CC4)s3)cc2=O)cc1C	-24%
O=C(O)/C(=C\c1ccc2ccccc2c1)c1cccc2ccccc12	-29%
CSc1ccc(/C=C(/NC(=O)c2ccc(C)cc2)C(=O)Nc2cccc(F)c2)cc1	2%
O=C1NCCN/C1=C\C(=O)c1cccc(Br)c1	-21%
CCOc1ccc(CN2C(=O)c3ccccc3Sc3ccc(C(=O)NC)cc32)cc1	-2%
Cc1cc(=O)n2nc(N3CCCC(C(=O)NCc4ccccc4Cl)C3)sc2n1 (centres undefined)	-3%
COc1ccc(Cn2c(C(=O)O)c(CNCCc3cccs3)c3ccc(OC)cc32)cc1	-6%

4 consecutive entries out of the list so far, for reference:
canonical_smiles	VDR inh
O=C1NCCN/C1=C\C(=O)c1cccc(Br)c1	-21%
CCOc1ccc(CN2C(=O)c3ccccc3Sc3ccc(C(=O)NC)cc32)cc1	-2%
Cc1cc(=O)n2nc(N3CCCC(C(=O)NCc4ccccc4Cl)C3)sc2n1 (centres undefined)	-3%
COc1ccc(Cn2c(C(=O)O)c(CNCCc3cccs3)c3ccc(OC)cc32)cc1	-6%

Among those listed so far, 4 contain an aryl methoxy group.
canonical_smiles	VDR inh
COc1ccc(CNC(=O)C/C(C)=N/NC(=O)Cc2ccc(OC)cc2)cc1	4%
COC(=O)c1ccc(OC)c(CSc2nnc(COc3cccc(C)c3)o2)c1	-20%
COc1ccc(NC(=O)Cn2nnc(-c3ccccc3NS(=O)(=O)c3ccc(OC)cc3)n2)cc1	-9%
COc1ccc(Cn2c(C(=O)O)c(CNCCc3cccs3)c3ccc(OC)cc32)cc1	-6%

New compounds follow
canonical_smiles	VDR inh
O=C(NC1CCCCC1)C1CCCN1S(=O)(=O)c1cccc2nsnc12 (centres undefined)	-17%
CCCCOc1ccc(-c2ncc(Cl)cn2)cc1	-17%
CCOc1ccc(NC(=O)c2oc3ccccc3c2NC(=O)c2cc3ccccc3o2)cc1	-20%
COc1ccc(/C=N/n2cnnc2)cc1Br	5%
Cc1cc(S(=O)(=O)NCc2ccccc2)ccc1OCC(=O)N1CCOCC1	2%
CC(C)S(=O)(=O)c1nsc2nc(=O)c(/C=C3\C=Nc4ccccc43)c(N)n12	-23%
O=c1cc(-c2ccccc2)nc(SCc2ccc(Cl)cc2)[nH]1	-1%
Cc1nn(CC(=O)N2CCN(C(=O)c3ccco3)CC2)c(C)c1[N+](=O)[O-]	-11%
O=C(NCCc1ccccc1)c1ccc(S(=O)(=O)N2CCCC2)cc1	16%
Cc1ccc2[nH]c3c(c2c1)CN(C(=O)CN1CC(C)OC(C)C1)CC3 (centres undefined)	-8%
O=C(O)CC1S/C(=N\N=C2CCCCCC2)N(c2ccccc2)C1=O (centres undefined)	20%
NS(=O)(=O)c1ccc(NS(=O)(=O)c2cccs2)cc1	-1%
COc1cc2c(cc1OC)C(c1cccs1)N(C(=O)c1cccnc1)CC2 (centres undefined)	15%
O=C(c1ccc(Cn2cc(Br)cn2)cc1)N1CCN(c2ccccc2)CC1	5%
N#CCCCSc1nnc(-c2ccccn2)o1	-2%
Cc1cccc(Cc2cnc(N3C(=N)SC(C)C3=O)s2)c1 (centres undefined)	1%
Cc1ccc(S(=O)(=O)N=S(CC2CC2(Cl)Cl)CC2CC2(Cl)Cl)cc1 (centres undefined)	5%
CCN1CCN(S(=O)(=O)c2ccc(Cl)c(C(=O)NC(C)(C)C)c2)CC1	-17%
CSCCC(NC(=O)c1ccccc1Cl)C(=O)NC1CCN(Cc2ccccc2)CC1 (centres undefined)	-8%
COc1cccc(-n2c(=O)[nH]cc(C(=O)Nc3ccc4c(c3)OCCO4)c2=O)c1	10%
COc1ccc(C(=O)OCC(=O)Nc2ncc([N+](=O)[O-])s2)cc1OC	?
Cc1cccc(NC(=O)c2cc(NC(=O)c3ccccc3)ccc2N2CCCCC2)c1	-5%
CCOc1ccc(NC(=O)Cn2nnc(C(=O)NCCc3ccccc3)c2N)cc1	-18%
COc1ccc(CN(C(=O)c2ccc(CN3CCOCC3)o2)C(C(=O)NCC2CCCO2)c2ccc(F)cc2)cc1 (centres undefined)	-3%
CCOC(=O)C1CCN(S(=O)(=O)c2cccc(-c3cn4cc(Cl)ccc4n3)c2)CC1	14%
CCCCN1C(=O)C(=O)N(c2ccccc2)C1=S	1%
Brc1ccc(C2CC(c3ccccc3)=Nc3ccccc3N2)cc1 (centres undefined)	?
CC(O)CNCc1ccc(-c2ccccc2)cc1 (centres undefined)	-8%
Cc1cccc(NC(=O)c2cc(S(=O)(=O)N3CCN(c4ccccc4F)CC3)ccc2F)c1C	15%
CCS(=O)(=O)c1ccccc1C(=O)N(Cc1cccnc1)c1nc2cc(C)c(C)cc2s1	4%

Continuation:
canonical_smiles	VDR inh
COc1cc2cc(CN(CCCO)S(=O)(=O)c3ccccc3Cl)c(=O)[nH]c2cc1OC	-15%
O=C(COC(=O)c1cccnc1)c1ccc(Cl)cc1	10%
FC(F)(F)c1cccc(N2CCN(c3ccc4nnc(-c5ccccc5)n4n3)CC2)c1	-6%
CCC(C)Sc1ccc(-c2nc3ccc(C)cn3c2NCc2ccccc2)cc1OC (centres undefined)	2%
COc1ccccc1N1CCN(CCN2C(=O)c3ccccc3C(C)(C)C2=O)CC1	-1%&-7%
CCC(C(=O)Nc1ccccc1C(=O)OC)n1c(C)c2cnn(-c3ccccc3)c(=O)c2c1C (centres undefined)	14%
C=CCC[C@H](Cc1ccc(F)cc1)C(=O)OC[C@H](C)NC(=O)[C@H](CC=C)CC(=O)NCCO	-8%
COc1cc(C(C(=O)NC2CCCCC2)N(C(=O)Cc2c[nH]c3ccccc23)c2ccccc2C)cc(OC)c1OC (centres undefined)	14%
COc1ccc(Cl)cc1NC(=O)CSc1nc(-c2ccccc2)cc(=O)[nH]1	-6%
O=C(CN1C(=O)NC2(CCc3ccccc32)C1=O)c1ccccc1 (centres undefined)	25%
O=C(Cn1nnc2ccccc2c1=O)Nc1cccc(S(=O)(=O)N2CCOCC2)c1	1%
CC(C)c1cc(C(=O)Nc2cccc(C(F)(F)F)c2)no1	6%
CCCOc1ccccc1/C=N/NC(=O)C1CC1	21%
Cc1cc(C)n2nc(C)c(-c3ccc(Cl)cc3)c2n1	-9%
COc1cc(C(=O)N/N=C(\Cc2ncc[nH]2)c2ccccc2)cc(OC)c1OC	10%
COc1ccc2c(C)cc(N3CCN(Cc4ccccc4)CC3)nc2c1	-4%
CCOC(=O)N1CCN(C(=O)CSc2ccc(C(F)(F)F)cc2[N+](=O)[O-])CC1	-3%
CCOC(=O)N1CCN(S(=O)(=O)c2ccc3[nH]cc(C(=O)O)c(=O)c3c2)CC1	-2%
CN(c1cccc(NC(=O)c2ccc(N(C)S(=O)(=O)c3ccccc3)cc2)c1)S(C)(=O)=O	?
Cc1ccc(Cl)cc1NC(=O)CN1C(=O)C(C)(C)c2cc(S(=O)(=O)N3CCCCC3)ccc21	11%
O=C1C(Cc2ccccc2)Nc2ncnc(N3CCCCC3)c2N1Cc1ccccc1 (centres undefined)	5%
N/C(=N\OC(=O)COc1ccc(Br)cc1Cl)c1ccccn1	10%
Cc1ccc2c(C(=O)CCl)c(C)[nH]c2c1	-2%
Cc1cc(C)cc(NS(=O)(=O)c2ccc3[nH]cc(C(=O)N(C)Cc4ccccc4)c(=O)c3c2)c1	0%
CN(Cc1ccco1)c1ccnc(-c2cccc(NS(C)(=O)=O)c2)n1	?
Cc1ccccc1OCCC(=O)OCC(=O)N1CCN(S(=O)(=O)c2ccc(Cl)cc2)CC1	-24%
c1coc(-c2nc3ccccc3nc2-c2ccco2)c1	?
Cc1noc(C)c1C(=O)N1CCC2(CCCN(c3ccccc3)C2)CC1	?
O=C(Cn1cnc2c(nnn2Cc2ccccc2)c1=O)NCC1CCCO1 (centres undefined)	-8%
O=C(COC(=O)CC1CCCCC1)Nc1c(Cl)cccc1Cl	2%

New compounds follow.
smiles	VDR inh
CN(C)c1ccc(CNC(=O)CCCN2C(=O)CCn3nc(-c4cn(C)c5ccccc45)cc32)cc1	1%
Cc1ccc(S(=O)(=O)CS(=O)(=O)c2ccc(C)cc2)cc1	-18%
CCN1C(=O)NC2=C(C(=O)c3ccccc32)C1c1ccccc1F (centres undefined)	14%
COc1cc(Nc2nn(-c3ccc(OC(F)(F)F)cc3)nc2C(C)=O)cc(OC)c1	5%
Nc1nc(=O)n([C@@H]2CS[C@H](CO)O2)cc1F	-13%
Cc1ccc(NS(=O)(=O)Cc2ccccc2)nc1	12%
CC(C)(C)NC(=O)CN(C(=O)CNS(=O)(=O)c1ccc(Cl)cc1)c1ccc2c(c1)OCCO2	-11%
CCOc1ccc(CC2CC(=O)NC2=O)cc1 (centres undefined)	10%
CCNc1ncc2nc(-c3ccc(Cl)cc3)c(=O)n(Cc3cccs3)c2n1	-21%
O=C(Nc1cccc(CNCCc2c[nH]c3ccccc23)c1)c1ccccc1Cl	-20%

More compounds follow.
smiles	VDR inh
COc1ccc(C(=O)NCC(=O)OC2CCCCC2=O)cc1 (centres undefined)	7%
CCOC(=O)c1cnc2cc(-c3ccc(OCC)cc3)nn2c1-c1ccccc1	8%
Clc1ccc(OCc2nn3c(-c4ccccc4)nnc3s2)c(Cl)c1	6%
O=C(CNC(=O)c1ccc(Br)o1)NCC1CCCO1 (centres undefined)	5%
COC(=O)CN(Cc1ccccc1)S(=O)(=O)c1ccc(OC)c(OC)c1	-1%
COc1cccc(/C=N/N=C(\N)c2nonc2N)c1O	13%
COc1ccc(OC)c(S(=O)(=O)NCc2csc(-c3ccccc3)n2)c1	1%
O=C(O)c1ccc(NS(=O)(=O)c2cccc3nsnc23)cc1	-11%
O=S(=O)(NCCc1ccc(F)cc1)c1cc(C(F)(F)F)ccc1Br	-13%
Cc1cc(C(=O)CN2CCCC(C)C2)c(C)n1-c1ccc(F)cc1 (centres undefined)	3%

Reformatted field by field: four of the compounds above.
CCOc1ccc(CC2CC(=O)NC2=O)cc1 (centres undefined)
  VDR inh: 10%
CCNc1ncc2nc(-c3ccc(Cl)cc3)c(=O)n(Cc3cccs3)c2n1
  VDR inh: -21%
O=C(Nc1cccc(CNCCc2c[nH]c3ccccc23)c1)c1ccccc1Cl
  VDR inh: -20%
COc1ccc(C(=O)NCC(=O)OC2CCCCC2=O)cc1 (centres undefined)
  VDR inh: 7%

Additional structures follow.
smiles	VDR inh
CCCS(=O)(=O)N1CCCC(C(=O)NCCCN2CCN(c3cccc(Cl)c3)CC2)C1 (centres undefined)	-8%
CCCC(C)NC(=O)COc1ccc(S(=O)(=O)N2CCCC2)cc1 (centres undefined)	10%
CCCCCCCCCCCCCC(=O)OCC(COP(=O)([O-])OCC[N+](C)(C)C)OC(=O)CCCCCCCCCCCCC (centres undefined)	0%
CCOc1ccc(NC(=O)CCN2CCN(S(=O)(=O)c3ccc(Cl)cc3)CC2)cc1	-4%
COc1ccc(N2C(=O)CC(N3CCCCC3)C2=O)cc1 (centres undefined)	-11%
O=C(COC(=O)Cc1ccc(S(=O)(=O)N2CCOCC2)s1)NCc1ccc(Cl)cc1	10%
Cc1cccc(NC(=O)/C(C#N)=C/c2cn(CC(=O)NCc3ccco3)c3ccccc23)c1	1%
O=C(CCCn1c(=O)[nH]c2cc(Cl)ccc2c1=O)NC1CCCCCC1	-2%
COCCN1C(=O)c2ccc(C(=O)Nc3cccnc3)cc2C1=O	-5%
Cc1nn(-c2ccccc2)c(C)c1/C=N/N1CCN(c2ccccn2)CC1	7%
N#Cc1ccc(C(=O)Nc2cc(-c3ccccc3)nn2-c2ccccc2)cc1	5%
COCCCNC(=O)CN(c1ccc(Cl)c(Cl)c1)S(C)(=O)=O	14%
